MenB inh – inhibitors of Mycobacterium tuberculosis MenB enzyme. P9WNP5. MenB enzyme assay, absorbance read-out; some hits fall short of the stated cut. inhibition, %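 (about 12 µg/mL by stock and volumes)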. 100,000 compounds, 0.43% hits;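 active = mean of two replicates above 30%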;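 note: 0% = no compound and 100% = wells with inactive enzyme; the first replicate is given; strong numbers were not always called active; inactives centre near -10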
Target sequence (P9WNP5 whole entry, looked up): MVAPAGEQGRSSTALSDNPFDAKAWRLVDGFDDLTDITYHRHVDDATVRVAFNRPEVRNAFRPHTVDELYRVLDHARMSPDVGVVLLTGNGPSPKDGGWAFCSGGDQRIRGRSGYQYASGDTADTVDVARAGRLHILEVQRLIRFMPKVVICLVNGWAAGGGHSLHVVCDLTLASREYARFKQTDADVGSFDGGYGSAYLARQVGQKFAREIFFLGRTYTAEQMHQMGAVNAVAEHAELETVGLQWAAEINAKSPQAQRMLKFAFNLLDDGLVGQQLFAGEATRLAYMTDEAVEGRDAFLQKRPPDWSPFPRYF
Polio RdRp inh – poliovirus RNA polymerase inhibition; P03300; 150,000 compounds, 0.66% hits; % elongation, % (compound at 16.7 µg/mL); poliovirus polymerase elongation, fluorescence polarization; active compounds read low; in the data active = % elongation below about 90%; note: some results filed as inactive read as strong as hits
Target sequence (P03300 1749-2209 limits assumed): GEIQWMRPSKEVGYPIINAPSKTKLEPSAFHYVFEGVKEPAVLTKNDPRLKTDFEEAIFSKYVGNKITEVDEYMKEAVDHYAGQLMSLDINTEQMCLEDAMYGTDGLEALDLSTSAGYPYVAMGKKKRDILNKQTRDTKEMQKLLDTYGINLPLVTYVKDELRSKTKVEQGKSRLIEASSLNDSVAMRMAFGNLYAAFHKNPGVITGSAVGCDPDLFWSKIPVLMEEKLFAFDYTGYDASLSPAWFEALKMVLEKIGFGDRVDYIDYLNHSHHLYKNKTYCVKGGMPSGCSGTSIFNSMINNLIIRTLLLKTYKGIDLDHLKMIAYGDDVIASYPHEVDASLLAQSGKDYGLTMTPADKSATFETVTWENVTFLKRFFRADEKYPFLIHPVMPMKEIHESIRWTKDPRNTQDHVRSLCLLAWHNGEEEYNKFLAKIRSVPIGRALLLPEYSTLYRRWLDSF
Mtb MbtI inh – MbtI salicylate synthase inhibition | 100,000 compounds, 0.89% hits | inhibition, %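 (about 17 µg/mL by stock and volumes)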 | purified MbtI enzyme, fluorescence intensity read-out | P9WFX0 | AID 493033;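 active = above 50% in both replicates, above 80% if mildly self-fluorescent; inactive = the rest, strongly fluorescent compounds included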;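 note: 0% = mean of negative and 100% = mean of positive controls; one replicate is shown; some compounds called inactive have numbers as strong as hits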
Polio RdRp inh intensity – second read-out of Polio RdRp inh, no call of its own (marks repeat the call); % elongation; measured here: total intensity read-out; formula for this scale not given here;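 total fluorescence in place of polarization; lower means less elongation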
* = called active by the depositor; i = inactive; nt = no result given.

Values run as follows: Polio RdRp inh	Polio RdRp inh intensity	MenB inh	Mtb MbtI inh
O=S(=O)(NCc1ccncc1)c1ccc(Br)cc1
  99	102	-9	-3
CC1=NN(c2ccccc2)C(=O)/C1=C\c1cn(C)c2ccccc12
  99	99	-18	7
CC(=O)Nc1c2c(nn1-c1ccc(F)cc1)CSC2
  101	101	-15	-3
COc1ccc(/C=C/C(=O)N(C)C2CCS(=O)(=O)C2)cc1 (configuration not stated)
  100	102	8	27
CCOc1ccc(CCNC(=O)c2cc3c(=O)oc4ccc(C)cc4c3s2)cc1
  103	98	-22	3
CCOC(=O)CCc1nc2sc3c(c2c(=O)[nH]1)CCCC3
  101	98	-15	-5
O=C1CCC(=O)N1c1ccccc1-c1ccccc1
  102	104	-8	nt
NC1=NC(c2ccc(Cl)cc2)C(C(=O)c2ccccc2)N1 (configuration not stated)
  102	104	1	-16
Cc1ccc(-n2nnc3c(SCC(=O)NCc4ccccc4Cl)ncnc32)cc1
  101	104	-1	4
C=CCNCc1ccc2c(c1)c1ccccc1n2CC
  102	100	-52	90
Cc1ccc(CCC(=O)Nc2ccccc2C(=O)O)o1
  100	98	-20	7
CC(C)(C)c1ccc(Cn2c(=N)n(CC(=O)c3ccco3)c3ccccc32)cc1
  104	102	-24	6
Cc1ccc(S(=O)(=O)CCc2nnc(NC(=O)C3CCCN3C(=O)NC3CCCCC3)s2)cc1 (configuration not stated)
  101	102	-15	-1
COC(=O)c1cc(-c2ccc(OCc3ccccc3)c(OC)c2)no1
  100	109	-19	nt
CCC1CCCCN1C(=O)c1cc2c(C)nn(-c3ccccc3)c2s1 (configuration not stated)
  100	102	-5	12
Cc1cccc(C(=O)OCC(=O)Nc2ccc3c(c2)OCCO3)c1C
  107	106	-14	-14
c1ccc(COn2c3c(c4c5nonc5ccc42)CCCC3)cc1
  97	100	-58	-38
CN(C(=O)c1ccco1)C1CC(C)(C)N(O)C(C)(C)C1
  97	84	-26	nt
CN1c2ccccc2N(C)C1c1ccc(O)cc1
  83*	36*	-33	10
CC1Cc2cc(S(=O)(=O)CCC(=O)Nc3cccnc3)ccc2N1C(=O)C1CC1 (configuration not stated)
  103	105	-1	6
COc1ccc(N2CCN(C(=O)C(NS(=O)(=O)c3ccc4nc(C)sc4c3)C(C)C)CC2)cc1 (configuration not stated)
  98	103	-8	-2
Cc1ccccc1NC(=S)NCC(c1cccnc1)N(C)C (configuration not stated)
  100	103	-18	-6
O=C1CN(C(=O)Cn2cnc3ccc(Cl)cc3c2=O)c2ccccc2N1
  109	107	-17	-5
COc1ccc(CNC(=O)CCC2N=C3c4ccccc4N=C(SCC(=O)Nc4cc(C)[nH]n4)N3C2=O)cc1 (configuration not stated)
  98	99	14	9
O=C(NCc1n[nH]c(=S)n1Cc1ccccc1)c1ccccc1
  101	103	-31	14
CC1S/C(=N\N=C2\CCCc3ccccc32)NC1=O (configuration not stated)
  101	101	-21	43
COc1ccc2[nH]c3c(=O)n(N)c(=S)[nH]c3c2c1
  102	103	-25	13
COc1ccccc1C(=O)Nc1ccc(CC#N)cc1
  102	113	6	nt
O=C(CSc1ccc2c(c1)OCCO2)NC(=O)NC1CCCC1
  100	102	-7	16
COC(=O)CN1c2ccccc2NC2=C(C(=O)CC(C)(C)C2)C1c1ccc(OC)cc1 (configuration not stated)
  104	107	-25	12
Cc1onc(-c2c(Cl)cccc2Cl)c1C(=O)NC(=S)Nc1ccccc1
  102	102	7	0
CC(NC(=O)c1ccco1)C(=O)N1CCc2ccccc2C1 (configuration not stated)
  106	98	-13	-5
CCc1nn(C(CC)C(=O)NCc2ccccc2F)c(=O)c2cc3occc3n12 (configuration not stated)
  99	102	5	6
CC(C)(C)NC(=O)c1ccccc1NC(=O)c1cccnc1
  100	100	8	-67
CC(NC(=O)c1cc(-c2ccc3c(c2)OCO3)nc2ccccc12)C1CCCO1 (configuration not stated)
  100	103	0	-84
O=C(Nc1cccc(C(F)(F)F)c1)c1ccc(F)cc1
  105	100	nt	4
CC1(C)CC(=O)CC(=NC2CCS(=O)(=O)C2)C1 (configuration not stated)
  103	107	nt	-13
Fc1ccc(Nc2nc3ccc(Cl)cc3n3cnnc23)c(F)c1
  104	103	-14	10
COc1ccc(F)cc1S(=O)(=O)Nc1ccc2c(c1)N(C(C)=O)CCC2
  104	112	-25	0
Cc1nn(C(=O)c2ccc(Cl)cc2)c(C)c1Sc1nnc(C(F)(F)F)n1C
  100	102	-6	-2
CCC(C)NC(=O)c1ccccc1NC(=O)CN1C(=O)c2ccccc2S1(=O)=O (configuration not stated)
  102	102	-17	-4
Cn1c(=O)[nH]c(=O)c2[nH]c(CN3CCN(Cc4ccccc4)CC3)nc21
  105	103	-15	-10
O=C([C@@H](c1ccccc1)N1Cc2ccccc2C1=O)N1CCN(Cc2ccccc2)CC1
  99	100	-25	4
Cc1cc2c(cc1C)C(=O)C(c1ccccc1)=C(NCc1ccccc1)C2=O
  103	109	-23	-6
O=C(O)CC(NC(=O)c1ccccc1Cl)c1ccccc1 (configuration not stated)
  104	110	-10	nt
N#Cc1ccc(/C=C/C(=O)NCc2ccccc2)cc1
  105	105	-18	nt
CSc1nc2sc(C)cc2c(=O)n1C
  101	103	15	11
O=S(=O)(/N=C(\Nc1ccccc1)c1ccccc1)c1ccc(Br)cc1
  104	106	-26	3
Cc1occc1C(=O)NC(C)C12CC3CC(CC(C3)C1)C2 (configuration not stated)
  102	100	1	-4
O=S(=O)(c1cccs1)N1CCN(Cc2nc3ccccc3s2)CC1
  99	108	-4	-3
COc1ccc(S(=O)(=O)Nc2ccc(-c3csc(C)n3)cc2)cc1
  106	96	3	13
OC(CNc1ccncc1)COc1ccc(OCC(O)CNc2ccncc2)cc1 (configuration not stated)
  105	108	-13	-14
C[n+]1c2cc(N)ccc2cc2ccc(N)cc21
  65	189	1	-8
O=c1c(-c2nc(-c3ccc(C(F)(F)F)cc3)no2)cnc2n1CCS2
  102	102	18	0
NC(=O)C1CCCCN1CC(=O)N1N=C(c2ccc(Cl)cc2)CC1c1ccco1 (configuration not stated)
  100	111	-28	-21
CC(OC(=O)c1ccco1)C(=O)Nc1nc(-c2ccccc2)cs1 (configuration not stated)
  102	108	-5	-14
CCSc1nnc(NC(=O)C2CC2)s1
  101	104	-10	13
O=c1c2c3c(sc2[nH]c(=S)n1Cc1ccccc1)CCCCC3
  98	98	-48	7
Cc1nnc(SC(C)C(=O)c2ccc(Br)cc2)n1C (configuration not stated)
  95	104	-2	10
CC[C@@H]1OC(=O)[C@H](C)[C@H](O[C@H]2C[C@@](C)(OC)[C@@H](O)[C@H](C)O2)[C@@H](C)[C@@H](O[C@@H]2O[C@H](C)C[C@H](N(C)C)[C@H]2O)C(C)(O)C[C@@H](C)[C@@H]2NC(COCCOC)OC([C@H]2C)[C@]1(C)O (some centres not stated)
  103	103	-3	-8

Other structures.
Values run as follows: Polio RdRp inh	Polio RdRp inh intensity	MenB inh	Mtb MbtI inh
Cc1ccc(N2CCN(c3ccc(C)cc3)C23C(=O)c2ccccc2C3=O)cc1
  101	107	-8	-6
NNC(=O)c1ccc(/C=N\O)nc1
  102	104	-4	6
CC(C)(C)OC(=O)CSc1nnc(-c2nn(Cc3ccccc3)c(=O)c3ccccc23)o1
  96	103	-3	105
CCOC(=O)c1c(N2CCN(c3ccccc3)CC2)cc(C)nc1C
  103	99	-43	-6
O=C(CC12CC3CC(CC(C3)C1)C2)N1CCN(c2ccc(F)cc2)CC1
  102	102	-27	-4
Cc1nc(Sc2nnc(C3CC3)o2)c2c(-c3ccccc3)csc2n1
  99	94	-44	-2
CC(C#N)Oc1ccc(-c2ccc(C#N)cc2)cc1 (configuration not stated)
  103	102	-11	103
Cc1ccc(S(=O)(=O)/C(C#N)=C/Nc2cc(C(F)(F)F)cc(C(F)(F)F)c2)cc1
  108	109	5	-16
O=c1[nH]c(CCl)nc2ccccc12
  98	102	nt	-20
COC(=O)C1=C(C)NC2=C(C(=O)CC(c3cccs3)C2)C1c1cccs1 (configuration not stated)
  101	93	-30	nt
S=C(NCCCn1ccnc1)Nc1ccccc1
  23*	38*	-8	5
C=CCOc1ccc2c3c(c(=O)oc2c1)CCC3
  101	108	-2	36
O=C(NCCN1C(=O)S/C(=C\c2ccccc2)C1=O)C1CCCC1
  100	101	-6	-7
Cc1ccc(NC(=O)N2CCC3(CC2)OCCO3)cc1Cl
  101	104	-11	-12
CC(Oc1ccccc1)C(=O)N(Cc1nc(-c2ccccc2)no1)C(C)(C)C (configuration not stated)
  101	102	5	-8
N#Cc1ccc(COc2ccc(-n3cnnn3)cc2)cc1
  101	106	-21	-2
CCC(=O)OC(Cc1ccccc1)(c1ccccc1)C(C)CN(C)C (configuration not stated)
  100	101	-27	-1
COc1ccc2c(c1)cc1n2CCN=C1N
  89*	84*	-5	nt
CC(Oc1ccccc1)c1nc(-c2cccc(Br)c2)no1 (configuration not stated)
  101	100	8	5
CC(=O)NC1C(OC2=CC3OC(=O)CC(C)=C3C=C2)OC(CO)C(O)C1O (configuration not stated)
  102	103	2	-111

Gathered by group: the entries above containing a COOH group
Values run as follows: Polio RdRp inh	Polio RdRp inh intensity	MenB inh	Mtb MbtI inh
Cc1ccc(CCC(=O)Nc2ccccc2C(=O)O)o1
  100	98	-20	7
O=C(O)CC(NC(=O)c1ccccc1Cl)c1ccccc1 (configuration not stated)
  104	110	-10	nt

The list goes on:
Values run as follows: Polio RdRp inh	Polio RdRp inh intensity	MenB inh	Mtb MbtI inh
CCn1c(O)c(C=Nc2ccc(Cl)c(C(=O)O)c2)c(=O)[nH]c1=O
  101	105	10	-81
CN1C(=O)N(C)C(=O)C(CCc2ccncc2)(CCc2ccncc2)C1=O
  101	103	3	1
CC(C)C1NC(C(=O)O)Cc2c1[nH]c1ccccc21 (configuration not stated)
  111	111	-8	nt
CCCc1ccc(OCC(O)CN2CC(C)OC(C)C2)cc1 (configuration not stated)
  96	104	-3	nt
Cc1cc2ccccc2nc1SCCN1CCOCC1
  103	98	-52	5
O=C(OCc1cn2ccccc2n1)c1ccc2c(c1)OCCO2
  100	107	3	-22
COc1ccc2nc(Nc3ccccc3)sc2c1
  100	101	-17	1
CCOc1ccc(CC(C(=O)NN)C(=O)NN)cc1CN(C)C
  102	102	-23	-13
CSc1ccc(Cl)c(C(=O)OCC(=O)N2CCC(C)CC2)c1
  98	95	nt	-14
CC(=O)NN1C(=O)c2cccc3c(N(C)C)ccc(c23)C1=O
  68	192	-108	7
O=C(Nc1ccnn1C1CCCC1)c1cccnc1Oc1ccccc1
  96	101	-1	1
O=C(/C=C/c1ccccc1)N1CCN(Cc2ccccc2)CC1
  102	107	-20	nt
O=S(=O)(NCCC12CC3CC(CC(C3)C1)C2)c1cccc2nsnc12
  101	103	4	8
Nc1cc(=O)nc(SCC(=O)Nc2ccc(Cl)cn2)n1-c1ccccc1
  100	92	-19	9
O=C(c1ccccc1Cl)N(Cc1ccco1)Cc1cc2cc3c(cc2nc1Cl)OCO3
  101	105	14	-3
Cc1csc(Cc2nc(-c3ccc(O)cc3)no2)n1
  122	143	-21	-7
COCC(=O)Nc1ccccc1-c1ccccc1
  102	102	nt	0
Cc1cc(-n2c(C)cc(C(=O)CSc3n[nH]c(=O)n3Cc3ccccc3)c2C)no1
  100	108	-35	-7
NC(=O)COc1ccccc1OCC(N)=O
  103	99	nt	-3
Oc1cccc(CN2CCN(C/C=C/c3ccccc3)CC2)c1
  103	102	-20	-10
CN1CCN(Nc2nc3c(c(=O)[nH]c(=O)n3C)n2Cc2ccc(F)cc2)CC1
  nt	nt	-5	10
Nc1c(-c2ccccc2)n[nH]c1-c1ccccc1
  104	108	-11	nt
O=c1oc(-c2ccc(F)cc2)nc2ccccc12
  101	103	0	29
O=C(NC1CCCCC1)NC1CC2CCC(C1)N2C(=O)NCc1ccccc1 (configuration not stated)
  105	102	-9	0
CC(C)(C)S(=O)(=O)c1cccc2ccccc12
  101	100	17	i
Cc1ccc(C)c(NC(=O)COC(=O)c2ccc3c(=O)n4c(nc3c2)CCCCC4)c1
  96	101	-5	8
O=C(c1ccc2nc[nH]c2c1)N1CCN(S(=O)(=O)c2ccccc2C(F)(F)F)CC1
  105	106	-31	-8
CC(=O)n1nc(C)c(Sc2nnnn2-c2ccccc2)c1C
  104	104	-4	-11
CC(C)(C)OC(=O)N1CCN(CCNC(=O)c2ccc(Cl)cc2)CC1
  107	107	-5	-5
CC(O)CNc1nc2ccccc2[nH]1 (configuration not stated)
  100	103	nt	-4
C=CCSc1nnc2c(n1)[nH]c1ccccc12
  104	101	-13	1
Cn1c(SCC(=O)c2ccccc2)nnc1C(F)(F)F
  102	105	10	-1

Another view of some results above.
COc1ccc(/C=C/C(=O)N(C)C2CCS(=O)(=O)C2)cc1 (configuration not stated)
  Polio RdRp inh: 100; Polio RdRp inh intensity: 102; MenB inh: 8; Mtb MbtI inh: 27

CCOc1ccc(CCNC(=O)c2cc3c(=O)oc4ccc(C)cc4c3s2)cc1
  Polio RdRp inh: 103; Polio RdRp inh intensity: 98; MenB inh: -22; Mtb MbtI inh: 3

CCOC(=O)CCc1nc2sc3c(c2c(=O)[nH]1)CCCC3
  Polio RdRp inh: 101; Polio RdRp inh intensity: 98; MenB inh: -15; Mtb MbtI inh: -5

Screens as filed in PubChem.
